Assay outcomes deposited in PubChem by National Center for Advancing Translational Sciences (NCATS).
Menin MLL FP FL = menin-MLL binding inhibition, fluorescein peptide. FP activity change, % at 61.4 µM. 290,000 tested, under 10 active. Fluorescence polarization, fluorescein-MLL peptide displacement from menin; inconclusive = falling polarisation curve, or a change in total fluorescence; inactive = total fluorescence flat and polarisation flat or rising; no compound was filed as active; the % refers to the polarisation; negative = inhibition;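 note: % of control where 0% means no effect; inhibitors lower the polarisation; unlabelled MLL peptide was the positive control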
TRPV1 PAM = human TRPV1 potentiation | AID 540277 | TRPV1-expressing cells, Fluo-8 calcium influx, capsaicin EC20 potentiation; host cell line not named in the record; control for the full effect not named in the record | 320,000 tested, 0.02% active | potentiation, % at 8.33 µM; active means potentiation above 80%; inconclusive means 30% to 80%; inactive means below 30%; note: 0% is about no effect
Target sequence (Q8NER1 whole entry, looked up): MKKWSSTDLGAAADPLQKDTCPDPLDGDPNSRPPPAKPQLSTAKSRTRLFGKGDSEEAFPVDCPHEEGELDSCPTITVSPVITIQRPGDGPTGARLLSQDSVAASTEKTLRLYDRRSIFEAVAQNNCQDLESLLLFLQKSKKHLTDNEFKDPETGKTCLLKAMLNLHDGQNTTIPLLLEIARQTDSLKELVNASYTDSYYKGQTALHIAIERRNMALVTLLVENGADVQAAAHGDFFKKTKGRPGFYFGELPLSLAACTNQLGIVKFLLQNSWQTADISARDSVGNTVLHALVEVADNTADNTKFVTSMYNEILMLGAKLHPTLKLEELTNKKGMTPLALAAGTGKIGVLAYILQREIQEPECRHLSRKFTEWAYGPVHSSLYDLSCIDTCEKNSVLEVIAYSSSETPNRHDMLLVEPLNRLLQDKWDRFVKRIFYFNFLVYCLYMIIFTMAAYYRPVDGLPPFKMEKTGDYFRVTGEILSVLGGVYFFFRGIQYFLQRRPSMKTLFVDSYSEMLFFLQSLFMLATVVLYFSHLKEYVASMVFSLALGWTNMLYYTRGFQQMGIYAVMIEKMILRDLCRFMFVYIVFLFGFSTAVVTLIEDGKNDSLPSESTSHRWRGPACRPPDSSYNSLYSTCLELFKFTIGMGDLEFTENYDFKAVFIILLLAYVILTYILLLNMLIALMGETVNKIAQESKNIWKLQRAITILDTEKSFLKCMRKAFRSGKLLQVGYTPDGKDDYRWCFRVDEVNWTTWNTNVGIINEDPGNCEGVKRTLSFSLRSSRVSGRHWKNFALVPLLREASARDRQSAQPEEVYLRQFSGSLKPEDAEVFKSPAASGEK
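Cells expressing TRPV1 were dye-loaded with Fluo-8 and read kinetically: 10 s baseline, 3 min after compound (agonist portion), then 2 min after EC20 capsaicin (allosteric enhancer portion). Calcium-bound dye fluorescence at 480/520 nm.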
ClpP mod = qHTS Assay for Activators of ClpP | purified B. subtilis ClpP, FRET peptide cleavage, 20 min | 340,000 tested, 1.9% active | AID 651965, 2013 | ATP-dependent Clp protease proteolytic subunit (Bacillus subtilis (strain 168)), P80244 | Potency, µM (top dose mostly 57.5 µM), for the others: top-dose activity change, negative = active; active = well fitted falling curve with a large enough effect; inconclusive = small, poorly fitted or top-dose-only effect; inactive = no such curve, though single readings can be large or run the other way; note: potency is the fitted concentration of half-maximal effect; the source files actives as falling curves though it sought activators and does not explain the sign; nearly all actives have a fitted effect of over 65% in size; many hits overshoot -100%
Target sequence (P80244 whole entry, looked up): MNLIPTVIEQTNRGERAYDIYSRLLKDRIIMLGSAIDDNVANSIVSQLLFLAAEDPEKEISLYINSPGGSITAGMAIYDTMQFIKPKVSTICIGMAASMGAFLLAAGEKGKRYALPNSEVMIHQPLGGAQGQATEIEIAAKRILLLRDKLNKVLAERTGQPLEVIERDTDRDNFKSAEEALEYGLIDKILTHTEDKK
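Buffer: 100 mM Tris/HCl pH8, 100 mM KCl, 0.05% low protease BSA, 2.5% glycerol, 0.01% Tween-20. ClpP 10 microg/mL final; 20 min RT; delta FRET normalized to ADEP and DMSO controls.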
TRPML1 blocker = blocks the human TRPML1 channel; Q9GZU1; TRPML1-inducible cells, Ca2+ dye fluorescence, FDSS; stronger effect = lower value; inhibition of EC80 agonist-evoked calcium signal; activity change, negative = inhibition, % (concentration not given with the values); 390,000 tested, 0.02% active; in the data active means activity change below about -50%; inconclusive means about -30% to -50%; inactive means above about -30%;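 note: stimulus is agonist 54-4 at its EC80 concentration; % is set by controls: 0 for no effect and ±100 for the full control effect; compound concentration not given in the record; the text of the record puts the active cut at -80%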
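Calcium fluorescence in TRPML1-DL cells induced overnight with Tet: a 110 s read after compound pin addition, then a 110 s antagonist read after challenge with 54-4 at 4 uM final (EC80).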
gsp antagonist = gsp mutant antagonism; gsp-mutant cells, cAMP HTRF, 30 min; control for the full effect not named in the record; Potency, µM (series often up to 76.9 µM), without a hit: top-dose activity change, negative = inhibition, most hits filed as inhibitors; 340,000 tested, 0.4% active; active = falling curve of any shape with a large fitted effect; inconclusive = falling curve, mostly with a smaller effect; inactive = flat or rising curve; cell line not stated here;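 note: intracellular cAMP measured with PDE inhibitor Ro 20-1724 present during compound exposure; potency is the fitted concentration of half-maximal effect; % is set by controls: 0 for no effect and ±100 for the full control effect; nearly all actives have a fitted effect of over 65% in size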
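G418-selected cells were plated in DMEM/10% FBS for 16-24 h at 37C, then treated with compounds plus the PDE inhibitor […] (300 uM solution added) for 30 min at 37C. Intracellular cAMP was measured by HTRF after 30 min lysis at room temperature.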
gsp ag = agonists of gsp mutant (McCune-Albright syndrome). Potency, µM (series often up to 76.9 µM), without a hit: at the highest dose activation (cAMP increase), most hits filed as activators. gsp mutant cells, cAMP HTRF, 30 min; control for the full effect not named in the record. AID 624287. 340,000 tested, 0.13% active; active = well fitted activation curve with a large enough effect; inconclusive = small, poorly fitted or top-dose-only effect, or another doubt; inactive = no such curve, though single readings can be large or run the other way; cell line not stated here;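 note: phosphodiesterase inhibitor Ro 20-1724 added with compounds to block cAMP breakdown; potency is the fitted concentration of half-maximal effect; nearly all actives have a fitted effect of over 60% in size; about a fifth of the inactives were tested at one dose only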
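Cells in DMEM/10% FBS with G418 were pretreated with compounds in DMSO plus […] (300 uM stock) for 30 min at 37C. cAMP was measured by HTRF (cAMP-d2 plus anti-cAMP antibody-K) after 30 min at room temperature.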
Sfp PPTase inh = blocks B. subtilis Sfp PPTase activity | Q9F4F7 | Potency, µM, inactives show max response, negative = inhibition, most hits filed as inhibitors | 310,000 tested, 3.5% active | Biochemical Sfp PPTase activity, qHTS | AID 1490; active = well fitted inhibition curve with a large enough effect; inconclusive = small, poorly fitted or top-dose-only effect, or another doubt; inactive = no such curve, though single readings can be large or run the other way;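 note: the enzyme is Sfp with the accession as filed and its product quenches rhodamine fluorescence; potency is the fitted concentration of half-maximal effect; 0% = enzyme reaction without inhibitor and -100% = no enzyme wells; top concentration of the series not given in the record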
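With Hepes-Na pH 7.6 buffer containing 10 mM MgCl2, Sfp (15 nM) modified BHQ-2-YbbR (12.5 uM) using rhodamine-CoA (5 uM). Two reads 30 minutes apart at 525/598 nm yielded each well's rate.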
Active calls of the source: *; u = inconclusive; x = no result given; & = joins results of further samples; [ ] = remark or other dose. This is a random part of the collection. About 4.9% of those tested had a hit in this group.

Sample of the layout, 2 compounds:
Below each compound: Menin MLL FP FL | TRPV1 PAM | ClpP mod | TRPML1 blocker | gsp antagonist | gsp ag | Sfp PPTase inh
#1 Cc1[nH]nc(C(F)(F)F)c1CCC(=O)NC1CCCCCC1
  x | x | -2.5% | -15 | 9% | -12% | x
#2 O=C(CSC1=NC(=O)C(c2ccccc2)C(=O)N1)Nc1cccc(Cl)c1 (stereo not drawn)
  3.3 | 7 | -2.9% | 1 | 7% | -11% | 27%

The whole of this part, previewed entries included:
Below each compound: Menin MLL FP FL | TRPV1 PAM | ClpP mod | TRPML1 blocker | gsp antagonist | gsp ag | Sfp PPTase inh
#1 Cc1[nH]nc(C(F)(F)F)c1CCC(=O)NC1CCCCCC1
  x | x | -2.5% | -15 | 9% | -12% | x
#2 O=C(CSC1=NC(=O)C(c2ccccc2)C(=O)N1)Nc1cccc(Cl)c1 (stereo not drawn)
  3.3 | 7 | -2.9% | 1 | 7% | -11% | 27%
#3 CN1C(=O)S/C(=C/c2cccn2-c2cccc(C(=O)O)c2)C1=O
  0.0 | 5 | x | -7 | u | 3% | 3%
#4 COC(=O)c1ccc2c(=O)[nH]c(COC(=O)c3[nH]c(C)c(C(C)=O)c3C)nc2c1
  x | x | x | -11 | -26% | -2% | x
#5 CCC(=O)Nc1cccc(-c2ccc(N3CCCCC3)nn2)c1
  5.3 | -10 | -10% | 3 | -16% | -53%[inhibitor] | 17%
#6 Cc1cc(C)cc(C(=O)NCC(=O)OCC(=O)N2CCCCC2)c1
  -1.6 | 4 | -0.5% | -7 | -13% | 20%[15.4 µM] | -3%
#7 O=C(COC(=O)COc1ccc(Cl)cc1Cl)NC1CCCC1
  x | -6 | 1.4% | 29 | -4% | -7%[15.4 µM] | x
#8 Cn1c(SCC(=O)Nc2nncs2)nnc1C1CC1
  x | -2 | 2.9% | 20 | 8% | u | -2%
#9 OCCC1CN(Cc2cccn2-c2cccnc2)CCN1Cc1ccccc1 (stereo not drawn)
  -0.8 | 2 | x | 35 | 9% | 0% | 3%
#10 CCCn1nc2cc(C(=O)NCc3ccccc3OC)ccc2c1OCC
  0.8 | 8 | 3.9% | -8 | 7% | 2% | 6%
#11 Cn1cc(C(=O)N/N=C/c2cc(Br)cs2)c2ccccc21
  1.0 | -4 | x | x | x | x | 8%
#12 CCc1ccc(NC(=O)c2cc(-c3cccs3)on2)cc1
  -2.3 | 13 | -15%&-4.7% | -17&-17 | -4% | -1% | 9%
#13 O=C(NCCCN1CCCC1=O)c1cc(NS(=O)(=O)c2ccc(F)cc2)cc(NS(=O)(=O)c2ccc(F)cc2)c1
  -1.4 | -1 | -2.3% | 19 | 3% | u | 0%
#14 CC(=O)N1CCc2nc3ccccc3cc21
  x | x | u | 0 | x | u | x
#15 CCO/N=C(\N)c1[nH]ncc1Br
  4.9 | x | -0.5% | -17 | -1% | 23% | 27%
#16 Cc1nc(N2CCOCC2)nc(Oc2ccccc2)c1[N+](=O)[O-]
  0.6 | -11 | -0.3% | -5 | -3% | 0% | 5%
#17 COC(=O)c1c(-c2ccc(OC)cc2)sc2ccc(-c3ccc4c(c3)OCO4)cc12
  x | x | u | 19 | -3% | 8% | x
#18 COc1cc(OC)cc(C(=O)N2CCN(S(=O)(=O)c3ccc4c(c3)OCCO4)CC2)c1
  x | x | 3.1% | -3 | x | 34% | x
#19 COc1cccc(NC(=S)NC(=O)c2cccnc2)c1
  -1.8 | 0 | x | -14 | -10% | -33%[inhibitor] | -27%
#20 COC(=O)c1c(N=CN(C)C)c(C#N)c2n1CCCC2
  1.3 | 20 | -3.5% | -4 | 14% | 4% | 8%
#21 Cc1ccc(CNC(=S)Nc2cc(C)ccc2OC(F)F)cc1
  -2.5 | -10 | x | 7 | x | 3%[15.4 µM] | 11%
#22 COCCCNC(=S)N(Cc1cccnc1)Cc1ccc(OC)c(OC)c1
  -0.8 | -3 | 1.3% | -5 | 0% | 1% | 4%
#23 Cc1cc(/C=N/n2cnnc2)c(C)n1-c1ccc(OCc2ccc(F)cc2)cc1
  3.1 | -2 | -14% | 33 | 2% | 4% | -28%
#24 CN(Cc1ccccc1)C(=S)Nc1ccc2nc3n(c(=O)c2c1)CCCCC3
  -0.4 | -2 | x | 0 | -9% | 2% | 18%
#25 CCCCN(C)Cc1c(C(=O)N2CCc3ccccc3C2)nc2ccc(Cl)cn12
  -8.7 | -11 | x | 19 | -7% | -2% | 3%
#26 CCOC(=O)Cn1nc(-c2ccc(Cl)cc2)ccc1=O
  1.8 | -6 | -5.1% | -1 | -5% | 7% | 7%
#27 O=C(c1ccco1)N(Cc1ccc2c(c1)OCO2)Cc1cc2cc3c(cc2[nH]c1=O)OCO3
  2.9 | 5 | -15% | x | -18% | 19% | u
#28 CC(CS(=O)(=O)c1ccccc1[N+](=O)[O-])N1CCOCC1 (stereo not drawn)
  0.3 | 4 | 0.2% | 4 | 13% | 22% | 12%
#29 Cc1ccc(NC2CCCCC2NS(=O)(=O)c2ccc(Cl)cc2)cc1 (stereo not drawn)
  0.5 | 16 | 6.3% | -3 | -12% | 4% | 28%
#30 COCCCNCCCOc1ccc(Cl)cc1C(C)(C)C
  6.0 | 8 | -1.3% | 6 | 15% | -3%[15.4 µM] | u

Screen by screen, as entered above:
Entries 2–7 in TRPML1 blocker read 1, -7, -11, 3, -7, 29
Entries 2–7 in gsp antagonist read 7%, u, -26%, -16%, -13%, -4%

New compounds follow:
Below each compound: Menin MLL FP FL | TRPV1 PAM | ClpP mod | TRPML1 blocker | gsp antagonist | gsp ag | Sfp PPTase inh
#31 Fc1ccc(-c2nnc(-c3ccc(F)cc3)o2)cc1
  2.7 | -20 | -8.8% | -3 | -2% | 5% | 19%
#32 C[C@H](CO)N1C[C@H](C)[C@@H](CN(C)C(=O)Nc2ccc3c(c2)OCO3)Oc2ccc(NS(=O)(=O)c3ccccc3)cc2C1=O
  x | x | -4.2% | -15 | -7% | -14% | x
#33 COc1cc(OC)c(NC2c3ccccc3C(=O)N2c2cc(C)ccn2)cc1Cl (stereo not drawn)
  -0.5 | -7 | -1.7% | -8 | -6% | -10% | 3%
#34 Cn1c(=O)n(Cc2ccccc2)c2ccccc21
  -1.3 | 4 | -1.3% | 21 | -4% | -29% | 9%
#35 NS(=O)(=O)c1ccc(N2C(=O)CCCC2=O)cc1
  x | x | 1.3% | 10 | x | 1% | x
#36 O=C(c1ccc2c(c1)CCN2S(=O)(=O)c1ccccc1)N1CCN(c2ccccc2)CC1
  0.1 | -4 | -0.4% | 2 | -14% | u | 1%
#37 CC(=O)N1N=C(c2cccc([N+](=O)[O-])c2)OC1c1ccc(Br)cc1 (stereo not drawn)
  0.9 | 0 | -1.1% | -2 | -11% | -44%[inhibitor] | 13%
#38 COc1ccc2c(c1)C(=O)N(c1ccccc1)C(=O)C2
  5.9 | -2 | u | -11 | 4% | 4% | -11%
#39 Cc1cccc(NC(=S)NCC2CCCO2)c1 (stereo not drawn)
  -2.2 | -1 | 3.4% | 13 | 9% | -1% | 6%
#40 COc1cc2nc(CN3CCC(Cc4ccccc4)CC3)[nH]c(=O)c2cc1OC
  -1.9 | 8 | 0.1% | 21 | -10% | 1%[15.4 µM] | 10%
#41 CCCCOc1ccc(C(NC(=O)OCC)NC(=O)OCC)cc1
  0.2 | 5 | -2.8% | -2 | 2% | 0% | 25%
#42 CSc1nnc(CNC(=O)C23CC4CC(CC(C4)C2)C3)n1Cc1ccccc1
  -0.8 | 22 | -4.2% | 15 | 9% | u | 13%
#43 N#CCCN(C(=O)CO/N=C/c1cccc([N+](=O)[O-])c1)c1ccccc1
  -4.2 | -9 | -1.7% | -1 | 5% | u | 4%
#44 COc1cc2c(C#N)c(N3CCN(C)CC3)nc(N)c2c(N)n1
  3.5 | 0 | x | x | x | x | 8%
#45 Cc1ccc2c(-c3csc(N)n3)c[nH]c2c1
  u | -4 | x | x | x | x | -19%
#46 CC1(C)CC(O)C(C(O)c2cccc([N+](=O)[O-])c2)C(C)(C)N1 (stereo not drawn)
  5.1 | 7 | -1.4% | -8 | 5% | -12% | 12%
#47 O=C1CN(CC(=O)NC(=O)NCc2ccccc2)CCN1
  5.5 | -1 | -3.8% | -19 | 5% | 2% | 6%
#48 C=CCN1C=C/C(=C\C=C(C#N)C#N)c2ccccc21
  u | -4 | x | 3 | u | -4%[15.4 µM] | 0%
#49 Cc1nn(CC(=O)NCCCN2CCOCC2)c(C)c1[N+](=O)[O-]
  -2.3 | 15 | 0.2% | 11 | 5% | -6% | -1%
#50 COc1ccc(-c2c[n+]3c4n2CCCCC4=C(c2ccc(Br)cc2)C3)cc1
  19 | -1 | 22µM* | 31 | -10% | u | 45µM*
#51 CCN(CC)CCNC(=O)c1ccc(Cl)c(S(=O)(=O)N2CCCCCC2)c1
  1.1 | 3 | 1.1% | -1 | 19% | -47%[inhibitor] | 0%
#52 CC(C)[C@H](NC(N)=O)C(=O)Nc1cccc([N+](=O)[O-])c1
  3.1 | 0 | x | -1 | 17% | -4%[15.4 µM] | 5%
#53 COc1ccccc1CCNC(=O)C1CCC(=O)N(C2CCCCCC2)C1 (stereo not drawn)
  x | 3 | -24% | 2 | -11% | 6% | 13%
#54 CCOC(=O)c1ccccc1OC(=O)NNc1ccccc1
  x | x | x | 7 | 4% | 29% | x
#55 CN(C)C(=O)c1c(C(F)(F)F)nn(C)c1Cl
  -1.3 | u | x | -9 | 10% | -6%[15.4 µM] | 7%
#56 CCOc1cccc(CN2CCCC(N3CCN(c4cccc(Cl)c4)CC3)C2)c1O (stereo not drawn)
  2.9 | -5 | x | 40 | 2% | -4% | 6%
#57 COc1cnn(-c2ccc(C)cc2)c(=O)c1Br
  1.2 | u | x | -3 | 5% | u | 10%
#58 CC(C)CN(C(=O)COC(=O)c1nc(Cl)ccc1Cl)c1c(N)n(Cc2ccccc2)c(=O)[nH]c1=O
  x | 24 | 0.6% | 29 | 11% | 17% | 21%
